# Bioassay records (PubChem BioAssay)
# rRNA inh HTS = reduced GFP signal of wild-type E. coli, primary screen, bacterial rRNA inhibitor project, GFP/RFP fluorescence, OD600, single point. E. coli WT GFP vs humanized-ribosome RFP mutants, 24 h; active compounds read low; DMSO median 0, no signal -100. GFP signal change (wild-type ribosome), % (concentration not given with the values). actives 1.6% (n = 350,000);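 active = significant combined selectivity score with lowered wild-type GFP, culture density cut under 30%, mutant RFP and density less affected; inactive = any of these conditions unmet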; also: one replicate is shown; some compounds called inactive have numbers as strong as hits
# B2AR ag = beta2AR agonists driving receptor internalization, primary screen, cell-based, FAP fluorogen, flow cytometry. Beta-2 adrenergic receptor (Homo sapiens), P07550. Am2.2-beta2AR cells; reference of the scale not given here. response, % (concentration not given with the values). actives 0.43% (n = 340,000);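 active = response above a set limit, near 3 SD of response in nonfluorescent compounds, cut at about 42% in these data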;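 also: stock transfer was 100 nL into about 11 µL; a reference agonist was the positive control; negative values mostly stem from fluorescent compounds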
# Target sequence (P07550 whole entry, looked up): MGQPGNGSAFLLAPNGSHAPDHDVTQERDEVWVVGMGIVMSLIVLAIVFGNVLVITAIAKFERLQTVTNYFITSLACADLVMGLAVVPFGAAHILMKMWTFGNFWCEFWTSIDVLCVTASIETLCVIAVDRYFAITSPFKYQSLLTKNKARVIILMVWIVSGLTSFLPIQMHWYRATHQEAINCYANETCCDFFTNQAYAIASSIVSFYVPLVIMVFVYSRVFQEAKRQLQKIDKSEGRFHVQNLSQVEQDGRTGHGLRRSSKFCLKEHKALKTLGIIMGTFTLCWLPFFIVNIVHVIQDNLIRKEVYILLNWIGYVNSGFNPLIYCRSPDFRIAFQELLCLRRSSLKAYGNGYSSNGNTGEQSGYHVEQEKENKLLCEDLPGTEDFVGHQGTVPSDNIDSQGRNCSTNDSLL
# rRNA inh HTS OD600 = also measured in rRNA inh HTS; calls as there; OD600 change, %; measured here: OD600 growth;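 optical density of the mix in the first replicate; 0 = DMSO median and -100 = no signal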
# rRNA inh HTS RFP = recorded beside rRNA inh HTS, whose call it bears; RFP signal change, %; measured here: RFP humanized mutant strains;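 first replicate; 0 = DMSO median and -100 = no signal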
# * = called active by the depositor. These rows are one share of the data; rates above refer to the full screens.
rRNA inh HTS	rRNA inh HTS OD600	rRNA inh HTS RFP	B2AR ag	molecule
14	16	4.7	-2	O=C1C=C(O)c2[nH]c(=O)ccc2C1=O
-26	-79	-23	36	Cc1ccc(NC(=O)c2ncn(CCCN3CCN(Cc4cccc5ccccc45)CC3)n2)cc1C
-5	-16	5.7	8	CC(C)c1ccc(C(=O)NNC(=O)c2n[nH]c(=O)c3ccccc23)cc1
-24*	-0.3*	1.4*	4	O=[N+]([O-])c1ccc(CC(Cl)c2ccccn2)cc1 (stereo unspecified)
7	3	2.3	-6	COCCS(=O)(=O)N(Cc1ccccc1)[C@H](C(=O)OC)C(C)C
-3	-16	-7.9	4	CC[C@@H]1C=C(C(=O)O)[C@H](c2ccc(Cl)cc2)N1S(=O)(=O)c1ccc(C)cc1
1	4	-0.1	-2	Cc1ccc(NC(=O)CN2C(=O)NC(C)(C)C2=O)cc1S(=O)(=O)N1CCCCCC1
-6	-5	5.3	0	O=S(c1ccccc1)C(c1ccccc1)c1ccccc1 (stereo unspecified)
6	11	-2.9	-9	Cn1c(=O)c2[nH]c(C3CC3)nc2n(C)c1=O
-41	-75	-15	-11	CSC1SCC2C(=O)N(C)C(C(C)C)C(=O)OCC(NC(=O)c3cnc4ccccc4n3)C(=O)NC(C)C(=O)N(C)C1C(=O)N(C)C(C(C)C)C(=O)OCC(NC(=O)c1cnc3ccccc3n1)C(=O)NC(C)C(=O)N2C (stereo unspecified)
-7	-3	11	9	O=C(C[C@H]1C[C@H](C(=O)N2CCCCC2)[C@@]2(CCc3ccccc3)c3[nH]c4ccc(Cl)cc4c3CCN2C1=O)NCCCn1ccnc1
-12	-14	17	-2	COc1ccc(NC2=Nc3ccccc3N[C@@]23C[C@H]2CCCC(=O)N4CC[C@@H](C3)[C@@H]24)cc1
8	16	2.0	-7	COc1ccc(CNCCS(=O)(=O)NCc2ccccc2)cc1
-15	-47	-3.0	5	O=C(O)c1ccc(OS(=O)(=O)c2ccc(Cl)s2)c(Cl)c1
20	8	1.5	11	Cc1ccc(NC(=O)COc2ccc3c(c2)OCO3)c(Cl)c1
0	-2	-0.2	4	COc1ccc(Br)cc1C(=O)CCC(=O)OCC(=O)Nc1cc(C(N)=O)cc(C(N)=O)c1
-48	-63	-3.4	-10	CCCCn1cnc2c(SCc3ccccc3Cl)nc(N)nc21
27	15	-1.4	5	CNC(=O)c1nn(C)c(=O)[nH]c1=O
4	1	-0.1	-1	c1ccc(CCCCc2ccccn2)cc1
0	9	-2.2	10	COCCN(C(=O)COC(=O)c1ccc(-c2ccccc2)cc1)c1c(N)n(Cc2ccccc2)c(=O)[nH]c1=O

rRNA inh HTS	rRNA inh HTS OD600	rRNA inh HTS RFP	B2AR ag	molecule
3	-6	-0.5	-17	O=C(CSc1nnc(C2CC2)n1C1CC1)c1cc(F)ccc1F
1	10	-6.1	-2	CCN1C[C@@H]2[C@@H]3C(=O)N(C)C(=O)[C@@H]3[C@](C)(C(=O)OC)N2C1=NC
2	6	2.3	4	COc1cc(CN(CC(C)C)S(=O)(=O)c2ccccc2Br)cc(OC)c1
12	17	2.2	1	CC(=O)Nc1ncc(Sc2ccc([N+](=O)[O-])cc2)s1
8	8	-0.8	0	O=c1ccn([C@@H]2O[C@H](CNCC3=Cc4cc(O)ccc4OC3)[C@@H](O)[C@H]2O)c(=O)[nH]1
2	13	10	-2	CN(Cc1ccccc1)C(=O)c1ccc(NC(=O)Cc2ccc(NC(=O)C3CCN(C(=O)C4CCCC4)CC3)cc2)cc1
-29	-51	-6.2	1	Cc1ccccc1C(=O)c1ccccc1C(=O)c1ccccc1
-46	-77	-9.1	7	Cc1cc(C(=O)COc2ccc(Br)cc2F)c(C)n1C1CC1
2	5	-1.1	4	COc1ccc(-c2nnc(-c3ccc4ccccc4c3)o2)cc1
10	13	0.1	-7	C=C1[C@@H](CCO)N(S(=O)(=O)C(C)(C)C)C[C@@H]1C
-23	-54	0.1	-5	CCn1c2ccccc2c2cc(/C=C(/C#N)C(N)=S)ccc21
5	6	1.0	1	O=C(c1ccccc1)N1CCN(c2ccccc2)CC1
13	10	2.2	6	CCN1C(=O)[C@H]2[C@H]3CN=C(SCc4ccc(Cl)cc4)N3[C@@](C)(C(=O)OC)[C@H]2C1=O
3	4	0.4	-251	COCCN(C(=O)COC(=O)CNC(=O)c1ccc(C)cc1)c1c(N)n(Cc2ccccc2)c(=O)[nH]c1=O
0	8	-0.2	-1	Cc1ccc(C(=O)N[C@H](C(=O)Nc2ccc(N3CCOCC3)cc2)C(C)C)cc1
2	4	-2.3	-10	NC(=O)C1CCCN(C(=O)c2cccc(NC(=O)c3cccs3)c2)C1 (stereo unspecified)
-2	-7	-1.5	-3	N#Cc1ccc(N)cc1OCCCN1CCCCC1
13	10	-0.1	1	COC(=O)[C@H]1C[C@H](O)CN1S(=O)(=O)c1ccc(Br)cc1F
0	-1	0.2	10	CCc1cccc(C)c1NC(=O)c1cc(-c2ccncc2)nc2ccccc12
-4	1	-1.9	-2	CC[C@]12c3[nH]c4cc(CCC(=O)N(C)C)ccc4c3CCN1C(=O)[C@@H](CC(=O)NCc1ccco1)C[C@@H]2C(=O)N1CCN(C(=O)C2CC2)CC1

# Complete entries as entered above. Order of screens: rRNA inh HTS	rRNA inh HTS OD600	rRNA inh HTS RFP	B2AR ag
# Results for Cc1ccccc1C(=O)c1ccccc1C(=O)c1ccccc1 : -29	-51	-6.2	1
# Results for O=c1ccn([C@@H]2O[C@H](CNCC3=Cc4cc(O)ccc4OC3)[C@@H](O)[C@H]2O)c(=O)[nH]1 : 8	8	-0.8	0
# Results for CCN1C(=O)[C@H]2[C@H]3CN=C(SCc4ccc(Cl)cc4)N3[C@@](C)(C(=O)OC)[C@H]2C1=O : 13	10	2.2	6
# Results for COc1cc(CN(CC(C)C)S(=O)(=O)c2ccccc2Br)cc(OC)c1 : 2	6	2.3	4
# Results for Cc1cc(C(=O)COc2ccc(Br)cc2F)c(C)n1C1CC1 : -46	-77	-9.1	7

# The list continues.
rRNA inh HTS	rRNA inh HTS OD600	rRNA inh HTS RFP	B2AR ag	molecule
3	0	-0.7	0	Cc1ccc(NCSc2ccc(Cl)cc2)cc1
6	9	3.4	0	O=C1c2ccccc2NC(c2cccs2)N1O (stereo unspecified)
5	3	-0.3	2	CCN(C[C@H]1N[C@@](C)(C(=O)OC)[C@H]2C(=O)N(C)C(=O)[C@@H]12)S(=O)(=O)c1ccc(OC)cc1
-5	-13	6.6	10	COC1=C/C(=C/c2c(N)n3nc(-c4ccc(C)cc4)sc3nc2=O)C=CC1=O
2	4	0.0	-2	Cc1cccn2c(=S)[nH]nc12
-13	-9	2.2	4	O=C(COc1ccccc1)N[C@@H]1c2ccccc2CC[C@H]1OCc1ccccc1
-51	-78	-20	-6	C[C@@H]1NS(=O)(=O)c2cc(Cl)ccc2O[C@@H]1c1ccccc1
-6	-9	1.4	-5	CN(Cc1ccccc1)c1ncnc2[nH]ncc12
-7	2	-1.0	-3	Cc1ccn2cc(C(=O)Nc3cccc(C(=O)NC4CC4)c3)nc2c1
6	5	-1.0	-8	CCN1C[C@@H]2[C@@H]3C(=O)N(Cc4ccccc4)C(=O)[C@@H]3[C@](CC)(C(=O)OC)N2C1=NC
-4	-31	-9.4	3	O=C1N(c2ccccc2)C(c2ccccc2)C12CCCCC2 (stereo unspecified)
4	-3	1.8	9	Cc1ccc(NC(=O)CCNC(=O)c2ccccc2Cl)cc1S(=O)(=O)N1CCOCC1
1	7	4.5	-9	Cc1cccc(-c2noc(CCC(=O)N3CCN(c4cc(C)ccc4C)CC3)n2)c1
10	9	-1.8	-7	COc1ccc(CNC(=O)N2CCN(C(=O)c3ccccc3)CC2)cc1
-18	-26	2.7	14	COc1ccc(C=C2SC(=S)NC2=O)cc1
2	5	-1.7	-15	COc1ccc(N2CCN(Cc3nc4c(c(=O)n(C)c(=O)n4C)n3Cc3ccccc3C)CC2)cc1
2	8	3.1	-5	CSCCC(NC(=O)c1ccc(Cl)cc1Cl)C(=O)N1CCN(C(=O)c2ccccc2)CC1 (stereo unspecified)
-6	-6	0.8	-11	CCC1(c2ccc(OC)cc2)NC(=O)N(CC(=O)N2CCc3ccccc32)C1=O (stereo unspecified)
2	-2	-3.1	-1	CC1CCCCC12NC(=O)N(CC(=O)Nc1ccccc1F)C2=O (stereo unspecified)
14	14	-2.8	-2	COc1ccc(-c2ccc(-c3cc(=O)oc4c(C(C)C)ccc(C)c34)cc2)cc1

rRNA inh HTS	rRNA inh HTS OD600	rRNA inh HTS RFP	B2AR ag	molecule
5	8	-1.9	-2	CC(=O)c1ccc(S(=O)(=O)Nc2ccc(C(=O)N(C)CC(=O)Nc3cccc(C)c3C)cc2)cc1
-5	-23	1.6	10	C=CCN(Cc1cccs1)C(=O)CN1CCN(S(=O)(=O)c2ccc3c(c2)OCCCO3)CC1
-11	-12	0.8	-3	O=C(NNC(=O)C1COc2ccccc2O1)c1ccccc1O (stereo unspecified)
-3	-1	5.0	-1	COC(=O)C1CC(O)C(O)C(O)C1 (stereo unspecified)
-51	-75	-16	2	Cc1cc(C)c(NS(=O)(=O)c2ccccc2)c(C)c1NS(=O)(=O)c1ccccc1
0	3	-2.6	4	O=C1c2ccccc2[C@@H]2CC(O)C(O)CCN12 (stereo partly specified)
0	-4	-3.0	3	Cc1noc(C)c1COc1ccccc1C(=O)NCCc1ccccc1
-4	5	-4.0	3	COc1ccc(-c2cccc(-c3cc(=O)oc4cc5c(cc34)OCO5)c2)cc1
7	3	-0.4	3	CC(=O)NC12CC3CC(C1)CC(C(=O)N1CCN(S(=O)(=O)c4ccccc4C#N)CC1)(C3)C2
-11	-6	2.5	-10	CN(Cc1nc2ccccc2c(=O)[nH]1)C(=O)c1cccc(NC(=O)c2cccs2)c1
-1	-2	0.9	-3	CCN(C(=O)CSc1nc2ccc(O)cc2c(=O)n1-c1ccc(OC)c(OC)c1)C1CCS(=O)(=O)C1 (stereo unspecified)
12	15	-2.0	-2	COc1ccccc1N1CC(C(=O)OCC(=O)Nc2cc(C)on2)CC1=O (stereo unspecified)
13	10	0.6	-4	O=C(O)C(c1ccccc1)C(O)c1ccc2c(c1)OCO2 (stereo unspecified)
9	0	0.2	-8	CC(Sc1nnc(-c2cccnc2)n1N)C(=O)NCCC1=CCCCC1 (stereo unspecified)
12	20	-0.7	2	Cc1cc(N)nc(=O)n1C1CC(O)C(CO)O1 (stereo unspecified)
-8	-19	0.5	6	Cc1ccc(S(=O)(=O)N2CCCN(C(=O)c3ccc(-n4nccc4C)cc3)CC2)cc1
-1	2	-3.4	-8	Cc1noc(C)c1COc1ccccc1C(=O)N1CCN(S(=O)(=O)c2ccccc2C#N)CC1
-7	-3	4.1	-4	COc1ccc(CN(C)C(=O)COC(=O)c2ccc(-c3ccccc3)cc2)c(OC)c1OC
-8	-1	6.7	-2	CN1C[C@@H]2[C@@H]3C(=O)N(Cc4ccccc4)C(=O)[C@@H]3[C@](Cc3ccccc3)(C1=O)N2C(=O)c1ccc(Cl)cc1
10	10	-3.3	-11	O=c1c2c3nc4ccccc4nc3n(CCN3CCOCC3)c2ncn1CCN1CCOCC1

# Another view of part of the listing above.
Molecule: CC(Sc1nnc(-c2cccnc2)n1N)C(=O)NCCC1=CCCCC1 (stereo unspecified)
- rRNA inh HTS: 9
- rRNA inh HTS OD600: 0
- rRNA inh HTS RFP: 0.2
- B2AR ag: -8

Molecule: Cc1cc(N)nc(=O)n1C1CC(O)C(CO)O1 (stereo unspecified)
- rRNA inh HTS: 12
- rRNA inh HTS OD600: 20
- rRNA inh HTS RFP: -0.7
- B2AR ag: 2

# More results:
rRNA inh HTS	rRNA inh HTS OD600	rRNA inh HTS RFP	B2AR ag	molecule
2	10	0.2	-2	Cc1ccc2nc(SCC(=O)Nc3ccc4[nH]c(=O)[nH]c4c3)[nH]c2c1
-35	-73	-16	31	CCCCCCCCNCCS(=O)(=O)NCCCCCCCC
7	22	-2.6	-5	C[C@]12c3[nH]c4ccc(Cl)cc4c3CCN1C(=O)[C@@H](CC(=O)NCCN1CCOCC1)C[C@@H]2C(=O)N1CCOCC1
10	8	0.0	-3	O=C1CC2(CCN1)CCN(Cc1ccccc1)CC2
-3	-50	-6.8	-10	Cc1c(C(=O)c2ccc3c(c2)OCO3)ccc2c1OCO2
-8	-1	-2.5	5	Cc1cccc(NC(=S)N2CCC(C(=O)c3ccc(F)cc3)CC2)c1
6	25	-1.7	0	CCN(CC)S(=O)(=O)c1cc(NC(=O)c2ccccc2OCc2c(C)noc2C)ccc1C
4	1	0.5	6	CCN(CC)C(=O)[C@H]1C[C@H](CC(=O)NCCCN(C)C)C(=O)N2CCc3c([nH]c4ccc(Cl)cc34)[C@]12C
2	5	-3.5	-24	COc1cc(C2c3cc4c(cc3C(O)C3COC(=O)C23)OCO4)cc(OC)c1OC (stereo unspecified)
4	2	-1.0	-1	C#CCOCCOCCOCCNc1nc(N2CCN(C(=O)Cn3cc(CC(C)O)nn3)CC2)nc(N2CCN(C(=O)[C@H]([C@@H](C)O)n3cc(CCCCN)nn3)CC2)n1 (stereo partly specified)
-3	-1	-3.6	-2	COCCCNC(=O)C[C@H]1C[C@H](C(=O)N2CCOCC2)[C@@]2(C)c3[nH]c4ccc(Cl)cc4c3CCN2C1=O
